Compound activity from PubChem BioAssay.
TSHR agonist – qHTS Assay for Agonists of the Thyroid Stimulating Hormone Receptor | Thyrotropin receptor (Homo sapiens), P16473 | HEK293-CNG-TSHR cells (CNG channel as cAMP sensor), membrane potential dye, cAMP | Potency, µM (series often up to 57.1 µM), inactives show at the highest dose activation, usual class: activators | hit rate 0.48% among 73,000 | AID 926, 2007; active = well fitted activation curve of enough size with the parental cells flat; inconclusive = any curve in the parental cells; inactive = parental cells flat and receptor cells flat or falling; also: potency is read from the fitted curve at half-maximal effect; % of control where 0% means no effect; weak receptor curves with flat parental cells got no call and are not listed
Target sequence (P16473 whole entry, looked up): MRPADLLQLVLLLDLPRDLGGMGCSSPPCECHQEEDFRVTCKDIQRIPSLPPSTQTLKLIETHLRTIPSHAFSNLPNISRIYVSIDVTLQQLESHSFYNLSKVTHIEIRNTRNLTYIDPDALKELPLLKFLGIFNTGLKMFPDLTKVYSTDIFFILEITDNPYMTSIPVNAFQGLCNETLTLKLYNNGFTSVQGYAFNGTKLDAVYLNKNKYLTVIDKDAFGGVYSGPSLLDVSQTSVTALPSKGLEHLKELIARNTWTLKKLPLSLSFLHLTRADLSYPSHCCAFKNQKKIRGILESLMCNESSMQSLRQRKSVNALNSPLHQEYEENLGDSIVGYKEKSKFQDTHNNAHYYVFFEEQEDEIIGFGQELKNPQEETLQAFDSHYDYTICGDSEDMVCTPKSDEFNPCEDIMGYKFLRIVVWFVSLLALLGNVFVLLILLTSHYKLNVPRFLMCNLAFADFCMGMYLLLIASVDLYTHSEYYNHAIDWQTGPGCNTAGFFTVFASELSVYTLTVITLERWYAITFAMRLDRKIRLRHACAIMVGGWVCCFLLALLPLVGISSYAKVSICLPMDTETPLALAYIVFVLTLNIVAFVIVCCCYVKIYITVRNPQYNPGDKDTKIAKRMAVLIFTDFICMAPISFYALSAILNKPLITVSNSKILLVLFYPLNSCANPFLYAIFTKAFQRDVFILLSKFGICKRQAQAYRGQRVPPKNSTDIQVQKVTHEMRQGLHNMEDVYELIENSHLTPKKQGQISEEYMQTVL
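HEK 293 cells stably expressing TSHR and a modified CNG channel, with CNG-only parental cells as counterscreen, were preloaded 60 min at room temperature with membrane potential dye containing 100 uM RO 20-1724. Compound exposure was 30 min, and depolarization was read as fluorescence at 590 nm.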
Resorufin autofl – qHTS Assay for Spectroscopic Profiling in Resorufin Spectral Region. Compound fluorescence, resorufin region 547/598 nm, buffer; stronger effect = higher value. max dye-equivalent concentration, M. hit rate 0.04% among 59,000; active = above 10 nM dye equivalent; inconclusive = 1 to 10 nM; inactive = 1 nM or less; a few of its hits are not listed in these tables; also: highest value over a series up to 38 µM
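Compounds in 100 mM Tris buffer, pH 8.0, incubated 15 min at room temperature, then read with 547 nm excitation and 598 nm emission filters. Fluorescence was converted to dye-equivalent concentration using an on-plate six-point resorufin standard curve.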
A488 fluor – qHTS Assay for Spectroscopic Profiling in A488 Spectral Region; AID 591, 2007; max dye equivalency, M; compound autofluorescence, A488 spectral region, dye equivalency; stronger effect = higher value; hit rate 0.1% among 59,000; active = above 10 nM dye equivalent; inconclusive = 1 to 10 nM; inactive = 1 nM or less; about half of its hits are not listed in these tables;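 also: highest value over a series up to 38 µM; compound alone in buffer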
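Read-out: relative fluorescence at 480/540 nm, expressed as Alexa 488 dye-equivalent concentration from a six-point A488 standard included per plate. Conditions: 100 mM Tris, pH 8.0; 15 min incubation, room temperature.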
A647 fluor – qHTS Assay for Spectroscopic Profiling in A647 Spectral Region; max dye-equivalent concentration, M; Compound fluorescence, A647 channel (570/671 nm), Tris buffer; 59,000 tested, under 10 active; AID 592, 2007; active means above 1 µM dye equivalent; inconclusive means 0.1 to 1 µM; inactive means 0.1 µM or less;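 also: values scaled relative to a standard on each plate; highest value over a series up to 38 µM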
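Compounds pinned into 100 mM Tris pH 8.0, 15 min at room temperature, then read with 570 nm excitation/671 nm emission filters. Fluorescence normalized to an on-plate six-point Alexa 647 standard curve, giving dye-equivalent concentration per compound concentration.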
AID923 – qHTS Assay for Allosteric/Competitive Inhibitors of Caspase-1: Spectroscopic Profiling in AFC Spectral Region; compound fluorescence, AFC spectral region (405/520 nm); almost no hit is shown here; Potency, µM (series often up to 57.5 µM), for the others: top-dose fluorescence increase, most hits filed as activators; hit rate 1.1% among 75,000; active = well fitted activation curve with a large enough effect; inconclusive = small, poorly fitted or top-dose-only effect;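 also: potency is read from the fitted curve at half-maximal effect; 0% is about no effect; scaled to a free AFC standard on each plate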
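Titrations up to 57 uM read every 20 sec for 3 min (405/520 nm) with 50 nM caspase 1 and 5 uM Ac-WEHD-AFC, pH 7.5 HEPES buffer. Fluorescence-vs-time intercept gave baseline, scaled against on-plate AFC standard.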
* = called active by the depositor; i = inactive; u = inconclusive; x = not tested or not shown; [ ] = another dose, or the depositor's remark. These rows are one share of the data; the hit share may differ from the screen's.

canonical_smiles	TSHR agonist	Resorufin autofl	A488 fluor	A647 fluor	AID923
CCN(CC)CCNC(=O)c1c(O)c2c([nH]c1=O)CCCC2	10%	i	i	1e-09	1.2%
N#CC1=C(N)Oc2n[nH]c(-c3ccc(F)cc3)c2C1c1cccnc1 (centres undefined)	-4%[11.4 µM]	i	i	3.8e-08	-0.5%
O=C(NCCCN1CCN(C2CCCCC2)CC1)Nc1ccccc1C(F)(F)F	0%[11.4 µM]	i	i	4.3e-08	1.3%
CN(C)S(=O)(=O)N1CCC(C(=O)O)(c2ccccc2)CC1	-3%	i	i	3.8e-09	-0.3%
CCCCC1CCC(c2nc(-c3ccccn3)no2)CC1 (centres undefined)	u	x	x	x	0.6%
COc1ccc2nc(NC(=O)C(NS(=O)(=O)c3cccs3)C(C)C)sc2c1 (centres undefined)	11%	i	i	1e-09	1.1%
COc1cccc(-c2csc(NC(C)=O)n2)c1	1%	i	i	1e-09	-0.3%
O=S(=O)(c1cccc(-c2nnc(SCc3ccc(Cl)cc3)o2)c1)N1CCCCC1	u	i	i	1e-09	0.5%
CCS(=O)(=O)N1CCN(C(=O)c2cccs2)CC1	6%	x	x	x	-0.6%
CSc1nnc(-c2cc3ccccc3cc2O)n1C	-10%	i	i	2.1e-08	2.4%
CCCC(C)NS(=O)(=O)c1ccccc1 (centres undefined)	0%	i	i	2.5e-08	1.0%
C/C(=N/n1cnnc1)c1cccnc1	x	i	i	9.2e-08	x
COc1cc(OC)cc(-n2nnnc2SCC(=O)N2CCCC2)c1	4%	i	i	3.7e-08	-0.9%
Cc1cccc(N2CCN(C(=O)c3cn(C)c(=O)c4c3c3ccccc3n4C)CC2)c1C	9%	i	i	1.5e-08	-0.7%
CCOC(=O)c1oc2nc3c(cc2c1N)COC(C)(C)C3	-8%	i	i	6.5e-09	2.5%
COC(=O)c1cc(NC2c3ccccc3C(=O)N2CCN2CCOCC2)cc(C(=O)OC)c1 (centres undefined)	25%	x	x	x	-2.3%
CC(NC(=O)CSc1nc2ccccc2c(=O)[nH]1)c1ccccc1 (centres undefined)	x	i	i	3.2e-09	-0.9%
COCc1[nH]nc2c1C1(CCC3(CC1)OCCO3)C(C#N)=C(N)O2	1%	i	i	6.3e-08	2.6%
Cc1c(N=CN2CCOCC2)c(=O)n(C)c(=O)n1C	-14%	i	i	1e-09	-1.0%
CCn1c(SCC(=O)O)nnc1-c1cc2c(C)nn(-c3ccccc3)c2s1	-2%	i	i	3.6e-09	-0.4%
CCOC(=O)c1c(N)sc(C(=O)N2CCCC(C(N)=O)C2)c1C (centres undefined)	1%	x	x	x	0.8%
O=C(C1=C(O)C(=O)N(CCN2CCOCC2)C1c1cccnc1)c1cc2ccccc2o1 (centres undefined)	x	i	i	1e-09	x
Cc1nn(Cc2ccccc2Cl)c2sc(C(=O)NCCCn3ccnc3)cc12	6%	i	i	1.7e-08	0.3%
CCOC(=O)CC(=O)Nc1cc(Cl)ccc1O	-6%	i	i	4.4e-08	-0.5%
O=C(Nc1ccc(F)cc1)NC1(C(=O)NCc2ccco2)CCCCC1	0%	i	i	1e-09	0.7%

Record cards, from the list above. Order of values: TSHR agonist	Resorufin autofl	A488 fluor	A647 fluor	AID923
`COc1ccc2nc(NC(=O)C(NS(=O)(=O)c3cccs3)C(C)C)sc2c1` (centres undefined) in the list: 11%	i	i	1e-09	1.1%
`Cc1c(N=CN2CCOCC2)c(=O)n(C)c(=O)n1C` in the list: -14%	i	i	1e-09	-1.0%
`CCN(CC)CCNC(=O)c1c(O)c2c([nH]c1=O)CCCC2` in the list: 10%	i	i	1e-09	1.2%
`COc1cc(OC)cc(-n2nnnc2SCC(=O)N2CCCC2)c1` in the list: 4%	i	i	3.7e-08	-0.9%

The list goes on:
canonical_smiles	TSHR agonist	Resorufin autofl	A488 fluor	A647 fluor	AID923
COCCCN1C(=O)C(=O)/C(=C(/O)c2ccc(OC)cc2C)C1c1cccnc1 (centres undefined)	-1%	i	i	7.5e-09	0.3%
Cc1oc(/N=C/c2ccc(Cl)cc2)c(C#N)c1C	-4%	x	x	x	8.8%
CN(CC(=O)NCCN1CCCCCC1)S(=O)(=O)c1cccc2nsnc12	5%	i	i	1e-09	-0.4%
COc1cccc(C(=O)Nc2ccc3nc(N4CCOCC4)cc(C)c3c2)c1	-19%	x	x	x	-5.1%
Cc1cc(Br)ccc1SCC(=O)OCC(=O)N1CCN(C(=O)c2ccco2)CC1	u	i	i	1.2e-09	0.8%
N[C@@H](Cc1cccc([N+](=O)[O-])c1)C(=O)O	-4%[11.4 µM]	i	i	4.4e-09	-2.7%[11.5 µM]
COc1ccc(CC(=O)Nc2c3c(nn2-c2ccccc2C)CS(=O)C3)cc1 (centres undefined)	1%	i	i	1.7e-08	0.8%
COc1cccc(NC(=O)CN2CCN(c3ccccc3F)CC2)c1	u	i	i	3.2e-08	-1.9%
O=C(CSc1nnnn1C1CCCC1)Nc1ccc2c(c1)OCO2	0%	i	i	5.8e-08	-0.4%
CS(=O)(=O)N1CCc2cc(S(=O)(=O)Nc3ccc4oc5c(c4c3)CCCC5)ccc21	3%	i	i	1.5e-09	2.3%
COCCn1nnnc1C(c1ccc(OC)c(OC)c1)N1CCN(c2nc3ccccc3s2)CC1 (centres undefined)	14%	i	i	1e-09	-0.4%
Cc1nn(-c2ccc(F)cc2)c2nc(N)c(C#N)c(-c3cccs3)c12	28%	i	i	1e-09	12%
COC(=O)c1ccc(-n2nnnc2SCC(=O)Nc2ccccc2OC)cc1	u	i	i	4.5e-09	-1.7%
Cc1cc(C)c(C(=O)CSc2n[nH]c(=O)n2C2CC2)cc1C	13%	i	i	2.4e-08	0.1%
O=C(O)C1CSC(CCc2ccccc2)N1 (centres undefined)	x	i	i	6.2e-08	x
O=c1cc(-c2ccc(O)cc2)oc2c([C@H]3O[C@@H](CO)[C@@H](O)[C@@H](O)[C@@H]3O)c(O)cc(O)c12	16%[25.6 µM]	i	i	7.4e-09	-1.0%[25.7 µM]
COc1ccc(C(=O)N2CCN(c3cccc(Cl)c3)CC2)c(OC)c1	x	i	i	1.7e-08	-0.5%
O=C(c1ccc([N+](=O)[O-])cc1)[C@@H](Br)[C@@H](Br)c1ccnc2ccccc12	3%[11.4 µM]	i	i	2.9e-09	2.8%[11.5 µM]
CC1CC(C)CN(Cc2nc3c(c(=O)n(C)c(=O)n3C)n2CCN2CCOCC2)C1 (centres undefined)	4%	i	i	1.6e-09	-1.5%
Cc1cc(C)c2c(c1)c(C)cc1nnc(SCC(=O)NCc3ccco3)n12	4%	i	i	1.2e-08	-0.6%
CCOC(=O)CNC(=O)CSc1nnc(-c2ccco2)n1Cc1ccco1	22%	i	i	4.5e-09	-0.4%
CCCCSC1=C(C#N)C(c2ccccc2C)C(C(=O)OCC)C(=O)N1 (centres undefined)	-2%[11.4 µM]	i	i	5.2e-09	-0.7%
CCC(C)NCC(=O)Nc1ccc(-c2nc3cc(NC(=O)CNC(C)CC)ccc3o2)cc1 (centres undefined)	-20%	i	i	1e-09	-1.2%
COc1ccc(-c2noc(CSc3ccccc3)n2)cc1OC	20%	i	i	1e-09	3.3%
Cn1c(=O)c2[nH]c(Nc3ccccc3)nc2n(C)c1=O	-28%	i	i	3.2e-09	-1.2%
C=CCSc1nc(N)c(C#N)c(-c2ccccc2)c1C#N	8%	x	x	x	4.5%
Cc1ccc(NC(=O)CN(c2ccc3c(c2)OCO3)S(=O)(=O)c2c(C)n[nH]c2C)cc1	5%	x	x	x	-0.8%
COc1ccc(-c2nnn(Cc3nc(N)nc(N4CCCCC4)n3)n2)cc1	32µM*	i	i	1.7e-08	2.4%
O=C(c1ccco1)N(CCCN1CCOCC1)c1nc(-c2ccc(Cl)cc2)cs1	u	i	i	2.6e-09	-1.2%
C#CCCCO/N=C1/C[C@@H](O)[C@@H](O)[C@@H]2[C@@H]3C(=O)N(Cc4ccccc4)C(=O)[C@H]3CC[C@@H]12	0%[11.4 µM]	x	x	x	-0.4%[11.5 µM]
O=C1[C@H]2[C@H]3[C@H](O)[C@H](O)C/C(=N/OCc4ccccc4)[C@@H]3CC[C@@H]2C(=O)N1Cc1ccc2c(c1)OCO2	-8%[11.4 µM]	x	x	x	-2.4%[11.5 µM]
CCOc1ccccc1NC(=O)Cn1c(=O)n(CCC(=O)NC2CCCC2)c(=O)c2ccccc21	u	i	i	1e-09	0.6%
Cc1cc(C)n(-c2nc3ccccc3n3nnnc23)n1	3%	i	i	4.1e-08	0.1%
CCOC(=O)N1CCN(C(=O)CSc2nnc(Cn3c(=O)sc4ccccc43)n2C)CC1	2%	x	x	x	0.7%
O=C(CCCNS(=O)(=O)c1cccc2nsnc12)N1CCCCC1	-1%	i	i	1.1e-08	0.9%
CCN(C(=O)CSc1nnc(Cn2nnc3ccccc32)o1)c1nc(-c2ccccc2)cs1	14%	i	i	1e-09	1.6%
COc1ccc(-c2ncc3ccccn23)cc1	-6%	i	i	1.2e-08	0.7%
CCC1Oc2ccc(Cl)cc2N(CC(=O)O)C1=O (centres undefined)	2%	i	i	1.3e-09	-1.0%
Cc1ccc(NC(=O)c2ccccc2F)nc1	-4%	i	i	5.8e-09	-1.2%
CN(C)Cc1cc(C(=O)O)cc(CN(C)C)c1O	-4%[11.4 µM]	i	i	3.7e-09	1.5%[11.5 µM]
Cc1ccc(S(=O)(=O)N2CCN(S(C)(=O)=O)C2c2ccccc2)cc1 (centres undefined)	24%[11.4 µM]	x	x	x	0.7%
Cn1nnc2cc(C(=O)NCc3ccco3)ccc21	17%	i	i	1e-09	0.4%
Cc1cccc(-n2nc3c(c2NC(=O)c2ccc(Br)o2)CSC3)c1C	u	i	i	5.1e-09	-0.4%
COc1ccccc1S(=O)Cc1ccc(C(=O)NCCc2ccc(Cl)cc2)o1 (centres undefined)	13%	x	x	x	1.6%
CCS(=O)(=O)N1CCC(NC(=O)C2CCCCC2)CC1	u	i	i	1e-09	-0.7%
Cc1ccc(C(C(=O)NC2CCCCC2)N2CCOCC2)cc1 (centres undefined)	x	i	i	1e-09	2.1%
CN(C)c1ccc(-c2nccc(NCc3ccccc3)n2)cc1	23%	i	i	3.1e-08	-0.5%
CCOC(=O)N1CCC(N2C(=O)c3ccccc3C2Nc2cc(OC)c(OC)c(OC)c2)CC1 (centres undefined)	9%	x	x	x	-1.0%
O=C(CSc1nnc(-c2ccccc2)o1)OCc1ccccc1	8%	x	x	x	0.8%
COC(=O)c1ccccc1NC(=O)c1ccc(NS(C)(=O)=O)cc1	-3%	i	i	3.4e-08	-1.2%
COc1ccc(C2=Nn3c(nnc3-c3ccccc3)SC2)cc1OC	x	i	i	1.3e-08	x
